fixLJ activator: increases Burkholderia fixLJ two-component signaling. B. multivorans fixK-promoter GFP reporter, 18 h; active compounds read high. z-score (concentration not given with the values). hit rate 0.3% among 29,000. AID 1918990;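 active means replicate mean overnight rise in green fluorescent reporter signal, 3 or more SD over negative controls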;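 further: score is relative to vehicle wells of the plate; 300 nL library stock went into each well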
* hit, by the source's call; & = joins results of further samples. The list is partial, so the mix of outcomes need not match the whole.

nr	structure	fixLJ activator
1	Cc1ccc(NC(=O)CS(=O)(=O)c2nc(-c3ccc(C)cc3)cn2-c2ccc(C)cc2)cc1	1.2
2	Cc1cc(C)c(NC(=O)CSc2nc3ccncc3[nH]2)c(C)c1	0.95
3	CC(C)n1cc(NC(=O)CCS(=O)(=O)c2ccccc2)cn1	0.91
4	Cc1cc(C)c2c(NC(=O)c3ccccc3Cl)c(C(=O)Nc3ccc(C)c(C)c3)sc2n1	-4
5	CCc1ocnc1-c1nc(C)nn1-c1cccc2cccnc12	-0.26
6	Cc1ccnn1CCC(=O)NCCOc1cccc2cccnc12	2.4
7	CCc1ccc(S(=O)(=O)c2cn(CC(=O)Nc3ccc(C)cc3)c3ccccc3c2=O)cc1	-0.12
8	Cc1ccccc1NC(=O)c1c(C)oc2ccc(O)c(CN(C)Cc3ccccc3)c12	-0.82
9	CCOC(=O)C1CCCN(C(=O)Cn2ncn3c(cc4sc(CC)cc43)c2=O)C1 (stereo unspecified)	-1.4
10	Cc1ccc(C2=CC(c3ccc(Cl)cc3)n3nc(-c4ccc(C)cc4)nc3N2)cc1 (stereo unspecified)	-1.3

In the list so far, these contain a carbonyl joined to an NH by a bond outside any ring:
nr	structure	fixLJ activator
1	Cc1ccc(NC(=O)CS(=O)(=O)c2nc(-c3ccc(C)cc3)cn2-c2ccc(C)cc2)cc1	1.2
2	Cc1cc(C)c(NC(=O)CSc2nc3ccncc3[nH]2)c(C)c1	0.95
3	CC(C)n1cc(NC(=O)CCS(=O)(=O)c2ccccc2)cn1	0.91
4	Cc1cc(C)c2c(NC(=O)c3ccccc3Cl)c(C(=O)Nc3ccc(C)c(C)c3)sc2n1	-4
6	Cc1ccnn1CCC(=O)NCCOc1cccc2cccnc12	2.4
7	CCc1ccc(S(=O)(=O)c2cn(CC(=O)Nc3ccc(C)cc3)c3ccccc3c2=O)cc1	-0.12
8	Cc1ccccc1NC(=O)c1c(C)oc2ccc(O)c(CN(C)Cc3ccccc3)c12	-0.82

(continued)
nr	structure	fixLJ activator
11	COc1ccc(CNC(=O)c2cc3c(-c4ccccc4F)nn(C)c3s2)c(OC)c1	1.1
12	CC(C)CCOc1ccc(Cn2c(=O)sc3ccccc32)cc1	0.31
13	CC(C)(C)c1ccc(NC(=O)C2CCCN(c3cnccn3)C2)cc1 (stereo unspecified)	0.52
14	CN1CCC2CN(C(=O)c3cn(-c4ccccc4)nn3)C[C@@]2(C(=O)O)C1 (stereo partly specified)	0.99
15	Cn1ncc(-c2ccccc2)c1NC(=O)N1CCCC1Cn1cccn1 (stereo unspecified)	-1.6
16	O=c1[nH]c(=O)n(C2C[C@@H](O)[C@@H](CO)O2)cc1F (stereo partly specified)	-0.85
17	CSc1nnc2c(n1)OC(c1cccc(O)c1Cl)Nc1ccccc1-2 (stereo unspecified)	-1.2
18	Cc1ccc(CCNC(=O)c2ccc(CSc3nc4ccncc4n3Cc3ccc(F)cc3)cc2)cc1	-0.64
19	CCCN(C(=O)c1ccc(-c2cc(OC)nc(N)n2)cc1)C1CCCC1	0.04
20	COc1ccc(NC(=O)Cn2c(=O)n(-c3ccccc3)c(=O)c3c4c(sc32)CCCC4)c(OC)c1	-1.1
21	Cc1cc(C)n2nc(CC(=O)NC3CCc4ccccc4C3)nc2n1 (stereo unspecified)	0.21
22	O=C(c1ccc(O)c(Cl)c1)N1CCc2c(nc(-c3ccccc3)[nH]c2=O)C1	-0.9
23	COCCn1cnnc1CCNC(=O)N(C)Cc1ccnc2ccccc12	0.39
24	CS(=O)(=O)c1ccc(C2(C(=O)N3CCCC(O)C3)CCCCC2)cc1 (stereo unspecified)	0.44
25	Cc1cc([N+](=O)[O-])ccc1NC(=O)CSc1nccn1C	-0.77
26	CCC(=O)N1CCCC(C(=O)N2CCC(Cc3nc(C)no3)CC2)C1 (stereo unspecified)	-1.1
27	Cc1ccc(-c2c3c(=O)n(C)c(=O)n(C)c3c3cnc4ccccc4n23)cc1	-0.87
28	Cc1nc(CNC(=O)N(C)Cc2nncn2C(C)C)sc1C	-1.2
29	CCCCC[C@H](O)/C=C/[C@@H]1[C@@H](C/C=C\CCCC(=O)O)[C@@H](O)C[C@H]1O	-1.1
30	Cc1ccc(C(=O)Nc2ccc(C(=O)O)cc2)cc1S(=O)(=O)N1CCC(C)CC1	0.32
31	O=S(=O)(NCc1csc(-c2ccccc2)n1)c1ccccc1	-2.2
32	Cc1ccc(C(=O)Nc2ccc(Br)cc2)cc1S(=O)(=O)NCc1ccccc1	0.04
33	CCOc1ccc(-c2cc(NC(=O)Nc3cccc(C(C)=O)c3)c(C(=O)OC)s2)cc1	-1.3
34	O=C(CCc1ccccc1)C1CCCN(C(=O)CN2C(=O)CNC2=O)C1 (stereo unspecified)	-2
35	C1CCN2C[C@@H]3C[C@H](CN4CCCC[C@@H]34)[C@H]2C1	-0.56
36	CCc1ccccc1NC(=O)CSc1nc2c(oc3ccccc32)c(=O)n1-c1ccccc1	-1.1
37	Cc1ccc(N(CC(=O)N2CCN(c3ccc(Cl)cc3)CC2)S(=O)(=O)c2c(C)nn(C)c2C)cc1	-0.75
38	O=C(CN1CCCC1=O)N1CCC2(CC1)OCCc1c2[nH]c2ccccc12	-2.1
39	Cc1ccc2c(CN3CCN(Cc4ccccc4Cl)CC3)cc(=O)oc2c1	-0.07
40	COc1ccccc1-c1nn(CCC(=O)Nc2ccc(C)cc2)c2nc(C)cc(C)c12	-2

Some of the entries above, set out differently:
35. C1CCN2C[C@@H]3C[C@H](CN4CCCC[C@@H]34)[C@H]2C1
  fixLJ activator: -0.56

36. CCc1ccccc1NC(=O)CSc1nc2c(oc3ccccc32)c(=O)n1-c1ccccc1
  fixLJ activator: -1.1

Carrying on.
nr	structure	fixLJ activator
41	COC(=O)c1nc2n(n1)C(c1cc(OC)ccc1OC)C(C(=O)Nc1ccc(C)cc1C)=C(C)N2 (stereo unspecified)	-1
42	CC(=O)Nc1ccc(C(=O)CSc2nnc(-c3ccccc3)n2-c2ccccc2)cc1	-0.96
43	CCc1noc(CCNC(=O)N2CCCC3(CC2)CNC(=O)O3)n1 (stereo unspecified)	2.2
44	Cc1ccc(NC(=O)CCNS(=O)(=O)c2cccc3nsnc23)cc1	-0.79
45	COc1ccc(C(=O)Oc2cc(-c3ccc(OC)c(OC)c3)cc(=O)c3c(C)oc(C)c23)cc1	-2.1
46	Cc1cccc(NS(=O)(=O)c2ccc(Cl)c(C(=O)Nc3ccccc3C)c2)c1	-1.2
47	CCc1nonc1NC(=O)c1oc2cc(C)c(Cl)cc2c1C	-3.4
48	CN(Cc1noc(C2CCCO2)n1)CC1(CO)CCOCC1 (stereo unspecified)	-0.12
49	Cc1cc(NC(=O)c2cccc(Cl)c2)ccc1-c1cc2ccccc2oc1=O	-0.43
50	CC(=O)N[C@@H](CS)C(=O)O	-0.47
51	CCn1c(C(=O)Nc2c(C)cccc2C)cc2sc(Cl)cc21	0.78
52	CC(C)c1cc(N2CC3CCC(C2)N(Cc2cscn2)C3=O)ncn1 (stereo unspecified)	-2
53	COc1cc2c(cc1OC)C1(CCN(C(=O)C(C)(C)OC)CC1)OCC2	-0.77
54	COc1ccc(NC(=O)CCNS(=O)(=O)c2cccc3nonc23)c(OC)c1	-1.3
55	Cc1ccc(NC(=O)C(Cc2ccccc2)NS(=O)(=O)c2ccc3c(c2)c(=O)n(C)c(=O)n3C)cc1 (stereo unspecified)	-1.6
56	Cc1ccccc1OCc1cc(=O)n2c(-c3ccccc3)csc2n1	-1.1
57	COc1ccc(CCNC(=O)CN2C(=O)COc3ccc(C)cc32)cc1OC	-1.9
58	Cn1nccc1C(=O)N1CCC(N2CCCC(C(=O)NC3CC3)C2)CC1 (stereo unspecified)	-1.6
59	Cc1ccsc1CN(C(=O)c1ccc(OCC(C)C)cc1)C1CCS(=O)(=O)C1 (stereo unspecified)	-0.55
60	N#Cc1ccccc1NC(=O)CSc1nnc(N)s1	-1.2
61	O=C(CSc1c2c(nc3ccc(Cl)cc13)CCCC2)N1CCCCC1	-1.2
62	Cc1cc(C(C)(C)C)c(O)c(C(C)(C)C)c1	0.19
63	Cc1cc(C)c(Cn2c(=O)n(CCC(=O)NCc3ccc4c(c3)OCO4)c(=O)c3ccccc32)c(C)c1	-1.9
64	COc1ccc(N(C(=O)c2ccc(Cl)cc2)S(=O)(=O)c2ccc(C)cc2)cc1	1.1
65	CCc1nn2c(-c3ccco3)ccnc2c1-c1ccc(F)cc1	-0.45
66	COc1ccccc1CNc1nc2ccc(Cl)cc2n2cnnc12	0.84
67	Cc1cccc(NC(=O)COc2ccc3oc4c(c3c2)CCCC4)c1	-0.52
68	Cn1ccnc1-c1ccc(N2CCC(O)(c3cccnc3)CC2)nn1	-0.41
69	Cc1c(CC(=O)NCCc2ccccc2)c(=O)oc2c(C)c3occ(C(C)(C)C)c3cc12	-0.58
70	CCOC(=O)CC(NC(=O)CCc1c(C)nc2c(c(C)nn2-c2ccc(C)c(C)c2)c1C)c1ccc(C)cc1 (stereo unspecified)	1.9
71	C[C@@H]1CN(c2c(F)c(N)c3c(=O)c(C(=O)O)cn(C4CC4)c3c2F)C[C@H](C)N1	-4.4
72	Cc1cc(C)n2c(Nc3ccc4c(c3)OCCO4)c(-c3ccccc3)nc2n1	-1.1
73	COc1ccc(S(N)(=O)=O)cc1C(=O)N1CC(O)C(Cc2cc(C)[nH]n2)C1 (stereo unspecified)	0.44
74	Cc1nc(CN2CCN(C(=O)c3cc(C(C)C)n4ncnc4n3)CC2)cs1	-1.5
75	O=C(Nc1cccc(F)c1)c1oc2ccccc2c1NC(=O)C12CC3CC(CC(C3)C1)C2	-0.13
76	Cc1ccc(NC(=O)C2CCN(S(=O)(=O)c3cccc4nsnc34)CC2)cc1	0.68
77	CC(=O)Nc1ccc(-n2c(CCC(=O)O)ccc2-c2ccc(C)cc2)cc1	-3.9
78	CCCn1ncnc1-c1ccc(C(=O)N2CCCCCCC2)cc1	0.2
79	Cc1ocnc1C(=O)NC1CCCC(NC(=O)CCCn2cncn2)C1 (stereo unspecified)	0.11
80	COc1ccc(-c2c3c(=O)n(C)c(=O)n(C)c3c3c(-c4ccccc4)nc4ccccc4n23)cc1	-0.64
81	COc1cc(Cl)c(C)cc1NC(=O)c1cn(C2CCCC2)c(=O)c2c1c1ccccc1n2C	-1.6
82	CCOc1ccc(CCNC(=O)c2nnc(Cc3ccc(Cl)cc3Cl)o2)cc1OCC	0.12
83	Cc1ccc(NC(=O)Cn2c(=O)n(-c3ccccc3)c(=O)c3ccc(C(=O)NCc4ccc5c(c4)OCO5)cc32)c(C)c1	-0.3
84	O=C(O)c1cc(-c2ccc(F)cc2)cc(S(=O)(=O)N2CCSCC2)c1	-1.9
85	COCCn1ccnc1CN1CCCCC1CCc1ccc(O)cc1 (stereo unspecified)	-0.14
86	CCOC(=O)c1cnc2nc(NCc3ccc(OCC)cc3)[nH]n2c1=O	-1.4
87	CN1CC2CN(C(=O)Cc3c(F)cc(F)cc3F)C[C@@]2(C(=O)O)C1 (stereo partly specified)	0.16
88	CCn1cc(C(=O)NCc2ccccc2)c(=O)c2cc(S(=O)(=O)N3CCc4ccccc4C3)ccc21	-0.33
89	COC1CN(c2nc(-c3ccccc3)nc3c2CCC3)CCC1N (stereo unspecified)	-0.97
90	CCOC(=O)CSc1nc2sc3c(c2c(=O)n1CC)CCCC3	0.04

Additional entries
nr	structure	fixLJ activator
91	COc1ccc(OC(=O)c2nc(SCc3ccccc3C)ncc2Cl)cc1	2.2
92	CCCN(C(=O)c1cn(CC(C)C)c(=O)c2cc(OC)c(OC)cc12)c1cccc(C)c1	0.27
93	Cc1c(C2=CCN(S(=O)(=O)c3ccc(Cl)cc3)CC2)c2ccccc2n1CC(=O)N1CCCC1	-1.7
94	COc1ccccc1CNC(=O)CN(C)c1nn2c(=O)cc(C)nc2s1	-1.6
95	Cc1ccc(NC(=O)C(C)n2nnc3sc4c(c3c2=O)CCCC4)cc1Cl (stereo unspecified)	-0.25
96	Clc1cccc(CNc2cc(-c3ccccc3)nc3nncn23)c1	-4
97	c1ccc2[nH]c(-c3cscn3)nc2c1	-2
98	CN(C)CCNC(=O)CN1C(=O)COc2ccc(S(=O)(=O)N3CCCC3)cc21	-1.3
99	CN(CC1COCCO1)C(=O)c1ccc(-c2ccc(O)c(C(=O)O)c2)cc1 (stereo unspecified)	0.46
100	COc1ccc(-n2nc(C(=O)Nc3cccc(C)n3)c3c4ccccc4n(C)c3c2=O)cc1	-0.93
101	CCCc1nn(C)c2c(=O)[nH]c(-c3cc(S(=O)(=O)N4CCN(C)CC4)ccc3OCC)nc12	-1.9&-0.4
102	Cc1cccnc1CC(C)N(C)C(=O)c1cccc(-c2cncn2C)c1 (stereo unspecified)	-0.1
103	COC(=O)[C@H]1[C@H]2C[C@@H]3c4[nH]c5cc(OC)ccc5c4CCN3C[C@H]2C[C@@H](OC(=O)c2cc(OC)c(OC)c(OC)c2)[C@@H]1OC	-1.2
104	Cc1cccc(N2CCN(C3=C(c4ccccc4)C(=O)c4ccccc43)CC2)c1C	-1.4
105	O=C1NCCN2CCN(S(=O)(=O)c3ccc(Cl)cc3Cl)CC12 (stereo unspecified)	1.2
106	CCC(CC)c1nn2c(=O)cc(COc3ccc(NC(=O)c4ccccc4C)cc3)nc2s1	-1.7
107	Cc1ccc(C)c(CN2C(=O)c3ccccc3S(=O)(=O)c3ccc(C(=O)Nc4cc(F)ccc4F)cc32)c1	-0.25
108	COc1ccc(C2CC(=O)c3cnc4c(-c5ccc(F)cc5)c(C)nn4c3C2)cc1OC (stereo unspecified)	-0.23
109	Cc1cc(C)cc(NC(=O)C2CCN(C(=O)c3cnn(-c4ccccc4)c3-n3cccc3)CC2)c1	-2.4
110	CC1CCCN(CCCNC(=O)c2ccc3c(c2)N(Cc2ccc(Cl)cc2)C(=O)c2ccccc2S3(=O)=O)C1 (stereo unspecified)	1.1
111	CCN(CC)CCCNc1sc(S(=O)(=O)c2ccccc2)nc1S(=O)(=O)c1ccc(Cl)cc1	-0.74
112	O=C(Nc1ccc2oc(-c3cccnc3)nc2c1)c1ccc(-c2cccc(Cl)c2)o1	-1.2

Source: PubChem BioAssay
